Bioassay records from PubChem.
S aureus helic = S. aureus DNA helicase inhibition; 120,000 compounds, 0.05% hits; inhibition, %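 (tested at about 80 µM)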; AID 485395; purified S. aureus helicase, fluorescence unwinding assay; about half of the hits fall short of the stated cut;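 active means both duplicates at 50% or more, or one of them with a favoured structure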;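 further: 0% = mean of negative control wells and 100% = mean of positive control wells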
MgrA DNA FP = alters Staphylococcus aureus MgrA binding to DNA | inhibition, %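 (about 10 µg/mL by stock and volumes)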 | 84,000 compounds, 0.13% hits | fluorescence polarization;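 active means above 50% in either of two replicates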;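 further: 0% = protein plus DNA without compound and 100% = DNA alone without protein; higher means less MgrA bound to DNA so lower polarization; one replicate is shown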
* marks the source's active call; other numbers are inactive results; nt = not tested or not shown; & = joins results of further samples. The list is partial; rates above refer to the full screens.

Sample of the layout (3 entries):
S aureus helic | MgrA DNA FP | Compound
8 | 0.2 | C=CCNC(=O)CSc1nc2cc(C)cc(C)c2cc1C#N
10 | nt | CCNc1ccc(C(=O)OCC)cc1NC(=O)Nc1ccc(F)cc1
-6 | nt | Cc1sc2nc(CN3CCCCC3)nc(N)c2c1C

The list itself, from the first entry:
S aureus helic | MgrA DNA FP | Compound
8 | 0.2 | C=CCNC(=O)CSc1nc2cc(C)cc(C)c2cc1C#N
10 | nt | CCNc1ccc(C(=O)OCC)cc1NC(=O)Nc1ccc(F)cc1
-6 | nt | Cc1sc2nc(CN3CCCCC3)nc(N)c2c1C
-8 | 2.0 | CCOCc1nnc(NS(=O)(=O)c2ccc(Cl)cc2)s1
-5 | nt | Cc1nnc(COC(=O)c2c3c(nc4ccccc24)CCC(C(C)(C)C)C3)o1 (centres undefined)
8 | nt | O=S(=O)(NCCN1CCCC1)c1cccc2cccnc12
15 | -1.2 | Nc1nc(SCc2ccccc2)ns1
6 | 7.6 | CN(C)c1ccc(NC(=S)NC2CCCCC2)cc1
-2 | nt | COc1ccc(C(=O)c2cnc3ncccn23)cc1
17 | nt | CC(C)(C)C(=O)/C=C1\Nc2ccccc2SC1(O)CC(=O)C(C)(C)C (centres undefined)
7 | -3.8 | Cc1nc2c(cnn2-c2ccccc2)c(=O)n1-c1ccccc1
nt | -0.5 | CC(O)c1ccc2ccccc2c1 (centres undefined)
-5 | nt | S=C(NCCN1CCOCC1)NNc1c(Cl)cc(Cl)cc1Cl
nt | 13 | CCOC(=O)c1ccc(C(=S)N2CCCC2)cc1
-5 | -2.8 | O=c1ccc(-c2nc3c4c5c(sc4ncn3n2)CCCC5)n[nH]1
11 | nt | O=C(Nc1ccccc1)Nc1nccs1
-3 | -0.2 | COc1ccccc1-c1coc2cc(OCc3ccc(C)cc3)ccc2c1=O
-10 | 2.8 | COC(=O)C1C(=O)c2cc(OC)c(OC)cc2C1c1ccccc1 (centres undefined)
20 | -0.9 | Fc1ccc(COC(CN2CCCCC2)CN2CCCCC2)cc1
0 | nt | COc1ccc(-c2nc(CSCC(=O)N3CCCC3)c(C)o2)cc1
1 | -6.2 | CC(=O)Nc1c(O)nc(SCC(=O)N2CCOCC2)[nH]c1=O
1 | -0.7 | Nc1nc(CC(=O)NN=C2CCCCCC2)cs1
1 | 0.7 | COc1ccc(OCCSc2nnc(CCNC(=O)c3ccc(OC)cc3)n2C)cc1
-13 | nt | CC(=O)NCCSCc1c(F)cccc1Cl
-8 | nt | CCOC(=O)C1=C(CSc2nnc(-c3ccc(OC)cc3)o2)NC(=O)NC1C (centres undefined)
7 | -0.7 | O=c1[nH]c(O)c(C=NCc2ccc(Cl)cc2)c(=O)[nH]1
6 | 1.1 | CCc1ccc(S(=O)(=O)NCc2cn3ccccc3n2)s1
nt | -1.1 | COc1cc(/C=C2\NC(=S)NC2=O)ccc1Oc1ccc([N+](=O)[O-])cc1[N+](=O)[O-]
10 | 0.9 | CC(C)N1C(=O)/C(=C/c2cccc(Br)c2)SC1=S
4 | nt | Cc1nc2ccc(S(=O)(=O)N(CC(=O)N3CCN(C)CC3)Cc3ccccc3)cc2s1
nt | -1.4 | O=C(CSc1nnc(CN2C(=O)c3cccc4cccc(c34)C2=O)n1-c1ccccc1)NCc1ccco1
4 | -3.7 | O=C(Cn1nc(-c2cccc(-n3cccc3)c2)oc1=O)N1CCCCC1
0 | -1.6 | CCc1cc(-c2[nH]ncc2-c2nc(C)cs2)c(O)cc1OC(C)C(=O)NN (centres undefined)
-11 | nt | CCOc1ccc(-n2c(=O)/c(=C\c3ccco3)s/c2=C(/C#N)C(=O)C(C)(C)C)cc1
nt | 0.7 | COC(=O)c1sccc1-c1ccc(C=Nc2ccc(Cl)cc2)o1
14 | nt | CCCOC1(C(F)(F)F)NC(=O)N(Cc2ccccn2)C1=O (centres undefined)
-9 | nt | CC(=O)Nc1ccccc1OCC(=O)NCC(F)(F)F
-5 | nt | O=C(NC(=O)C(F)(F)F)Nc1nncs1
10 | nt | Cc1cc(-c2ccc(S(=O)(=O)Nc3ccccc3)s2)on1
11 | 1.4 | FC(F)(F)c1nc(NCCc2ccccc2)nc2c1CCCCC2
11 | nt | Cc1cccc(C)c1NC(=O)C(c1ccccc1)N(C)C(=O)c1cnccn1 (centres undefined)
19 | nt | S=C1N2CCN=C2SC2=NCCN12
16 | nt | CC1=C(C(N)=O)C(c2ccccc2F)n2ncnc2N1 (centres undefined)
13 | 0.4 | O=C(/C=C\c1ccc2c(c1)OCO2)OCn1nnc2ccccc2c1=O
nt | 0.4 | Cn1c(=O)c2c(nc(NCc3ccco3)n2Cc2ccc(Br)cc2)n(C)c1=O
5 | 1.1 | COc1cccc(OC)c1C(=O)N1CCN(C(=O)COc2ccc(Cl)cc2)CC1
23 | nt | Cc1nnc2c3ccccc3nc(Nc3ccc(N4CCOCC4)cc3)n12
nt | 1.7 | COc1cc(N=Cc2cccs2)c(OC)cc1Cl
-19 | nt | COc1cccc(NC(=O)C2C3C=CC4(O3)C2C(=O)N(Cc2ccc3c(c2)OCO3)C4C(=O)NC2CCCCC2C)c1 (centres undefined)
16 | 1.5 | O=C(CCS(=O)(=O)c1ccc(Br)s1)NC(c1ccccc1)c1ccccc1
-26 | nt | Cc1ccc(NCC2OCc3ccccc3CO2)cc1
5 | 4.0 | CN(C)C(CNC(=S)Nc1ccccc1)c1cccnc1 (centres undefined)
-236 | 1.5 | COc1ccccc1/C(O)=C/c1nc2cc3c(cc2[nH]c1=O)n(C)c(=O)n3C
9 | -0.7 | O=C1CC(c2ccccc2Cl)Cc2c1cnn2-c1nc2ccccc2s1 (centres undefined)
-1 | -0.5 | COc1cccc(NC(=O)N2CCN(c3nnnn3-c3ccccc3)CC2)c1
15 | 0.3 | CCOC(=O)C1CCCN(C(=O)CSc2ccccc2Cl)C1 (centres undefined)
-3 | 0.3 | CC(C)Oc1cccc(NC(=O)Nc2ccccc2)c1
3 | nt | O=C(CC(=O)N1CCCCCC1)Nc1ccc2nc3n(c(=O)c2c1)CCCCC3
9 | nt | CCCCC1(C(=O)OCC)CC(CN2CCOCC2)OC1=O (centres undefined)
-22 | nt | Cc1cc(C(=O)CSc2n[nH]c(COc3ccc(Cl)cc3)n2)c(C)n1-c1nccs1

Next section:
S aureus helic | MgrA DNA FP | Compound
nt | -0.7 | O=C1CCCN1c1cccc(C(F)(F)F)c1
nt | -0.8 | COC(=O)c1ccc(NC(C)=O)c(C(=O)OC)c1
12 | -0.5 | COc1ccc(CSc2nc(C)cc(=O)[nH]2)cc1Br
-1 | -0.2 | O=C1CC(N2CCOCC2)C(=O)N1C1CCCC1 (centres undefined)
-32 | nt | CCOC(=O)c1oc2ccccc2c1COC(=O)c1ccccn1
-21 | -2.5 | O=C1CN(C(=O)c2ccccc2C(=O)O)c2ccccc2N1
-7 | nt | CCCn1c(C)cc(C(=O)COn2nnc3ccc(C(=O)OC)cc32)c1C
1 | nt | CN(C)C(=O)CN1CCNCC1
nt | -1.6 | CCc1nnc(NS(=O)(=O)c2ccc(NC(=O)CSc3nc4ccccc4s3)cc2)s1
nt | -2.9 | O=C(Nc1nccs1)c1ccc(Cl)cc1
-20 | -0.3 | CC1CCCN(C(=O)c2ccc(Cl)c(S(=O)(=O)N3CCCCCC3)c2)C1 (centres undefined)
nt | 2.4 | COc1ccc2c(c1)C(C(C#N)C#N)C(C#N)=C(N)O2 (centres undefined)
-15 | 4.7 | Cc1cc2nc(Nc3ncc4c(n3)CC(c3ccco3)CC4=O)nc(C)c2cc1C (centres undefined)
nt | 0.3 | O=S(=O)(NCc1ccccc1)c1ccccc1
2 | 3.5 | O=c1oc2ccccc2cc1C1=NC(=S)NC(c2ccc3c(c2)OCO3)C1 (centres undefined)
7 | 5.7 | Cn1c(=S)[nH]c2sc3c(c2c1=O)CCC(C(C)(C)C)C3 (centres undefined)
3 | nt | C/C(=N\NC(=S)NC1CCCCC1)c1ccc(O)cc1
nt | 1.5 | CS(=O)(=O)c1ccccc1C(=O)O
8 | nt | COC(=O)NC1c2ccccc2Oc2ccccc21
19 | nt | CCn1ccc(C(=O)Nc2cc(Cl)ccc2Cl)n1
21 | nt | CCOC(=O)N1CCN(C(=O)Cn2nc(CC)n3c(cc4sc(C)cc43)c2=O)CC1
14 | -1.6 | O=C(NCc1ccccc1)NC1(C(=O)O)CCCCC1
nt | -0.6 | COc1ccc(OCC(O)CNS(=O)(=O)c2cccs2)cc1 (centres undefined)
nt | -1.2 | O=C(O)CCCSc1ccccc1
-7 | nt | N#CCOC(=O)c1sc2ccccc2c1Cl
22 | nt | Cc1ccc(-c2nnc(SCC(=O)c3ccc(C)cc3C)o2)cc1
5 | nt | COc1ccccc1Oc1nnnn1-c1ccccc1
0 | 0.2 | O=C(Nc1ccc(NC(=O)c2cccs2)cc1)c1cccs1
nt | -0.8 | CCOC(=O)c1c(-c2ccccc2)cn2ccccc12
-1 | nt | COc1ccc2nc(SCC(=O)NCC(F)(F)F)[nH]c2c1
13 | -0.1 | CC1(C)CC2(C)OC(=O)C(c3ccccc3)N2C(=S)N1 (centres undefined)
-14 | nt | Cc1ccc(-c2nc(S(=O)(=O)c3ccc(C)cc3)c(N(C)C)o2)cc1
5 | nt | COc1ccc(CNC(=O)c2cccc(S(=O)(=O)N3CCN(C)CC3)c2)cc1
2 | nt | Cn1cnc2ccccc21
-4 | 2.2 | Cc1cc(Br)ccc1OCCCN1C(=O)CCN1c1ccccc1
-1 | 2.6 | O=c1oc2ccccc2c(Nc2ccccc2)c1CN1CCCCC1
8 | 0.2 | CSc1nnc(C(C)(C)C)c(=O)n1/N=C/c1ccccc1
-6 | nt | O=C(O)c1ccc(CN=C2NS(=O)(=O)c3ccccc32)cc1
-7 | 0.2 | O=c1ccn(C2OC(CO)C(O)C2O)c(=S)[nH]1 (centres undefined)
nt | -1.8&3.0 | COc1ccc2c(c1)c(CC(=O)OCC(=O)O)c(C)n2C(=O)c1ccc(Cl)cc1

Single values from above.
MgrA DNA FP, COc1ccc2c(c1)c(CC(=O)OCC(=O)O)c(C)n2C(=O)c1ccc(Cl)cc1 = -1.8&3.0
MgrA DNA FP, CCOC(=O)c1c(-c2ccccc2)cn2ccccc12 = -0.8
S aureus helic, Cc1ccc(-c2nc(S(=O)(=O)c3ccc(C)cc3)c(N(C)C)o2)cc1 = -14
MgrA DNA FP, O=C(NCc1ccccc1)NC1(C(=O)O)CCCCC1 = -1.6

Going on with the list:
S aureus helic | MgrA DNA FP | Compound
8 | 2.3 | Cc1cc(C)n2c(NC(C)C)c(-c3ccc(C)o3)nc2n1
-31 | nt | Cc1cccc(N(CC(N)=O)C2SC(=O)N(c3ccccc3)C2=O)c1 (centres undefined)
6 | -2.2 | COc1ccc(NC(=O)c2cncc(NS(=O)(=O)c3ccc(C)cc3)c2)cc1OC
-6 | 3.4 | CCC1C(=O)NN=C1C (centres undefined)
0 | -1.0 | CCOC(=O)N1CCN(c2cc3cc(OC)ccc3oc2=O)CC1
nt | 0.8 | CCc1cccc(C(C)C)c1NC(=O)Nc1ccccc1
-3 | 0.0 | CCOC(=O)Cc1c(O)c2ccccc2[nH]c1=O
-8 | 0.7 | COc1ccc(CC(=O)N(C)C)cc1
nt | -0.3 | Cc1nnsc1-c1nc(CSc2ccc(Cl)cc2)no1
nt | -2.2 | CCN(CCC#N)C(=S)Nc1cc(C(F)(F)F)cc(C(F)(F)F)c1
-25 | nt | CC(C)Cn1c(=O)c2sccc2n2c(CCCC(=O)O)nnc12
4 | nt | Cc1cc(C(=O)COc2ncnc3ccccc23)c(C)n1C
5 | nt | O=C(Cn1c(=O)cnc2ccccc21)NC1CCCc2ccccc21 (centres undefined)
-8 | nt | Cc1ccc(NC(C)C(=O)N/N=C/c2ccc(N(C)C)cc2)cc1 (centres undefined)
nt | -1.0 | CCCc1cnc(N2CCCN(C(=O)OC(C)(C)C)CC2)nc1
4 | nt | COC(=O)C1=C(NC(=O)/C=C/c2ccccc2)CCS1
15 | -1.4 | CCC(C)NC(=O)CSc1nc2ccsc2c(=O)n1NC(=O)c1ccccc1 (centres undefined)
-3 | nt | CC(=O)n1c2ccccc2c2ccccc21
nt | -2.2 | Cc1cnc(C(=O)NCc2c(Cl)cccc2Oc2ccccc2)cn1
-3 | nt | Cc1ccc2nc(NCCCN3CCOCC3)c3nncn3c2c1
-6 | 1.4 | Nc1cc(=O)[nH]c(SCc2ccccc2CSc2nc(N)cc(=O)[nH]2)n1
-14 | 2.8 | CC(C)(C)Nc1nc(OCC#N)nc(N2CCOCC2)n1
-5 | 4.2 | CCCNS(=O)(=O)c1ccc2[nH]c(=O)[nH]c2c1
13 | nt | COC(=O)c1ccc(Cl)c(-c2ccc(/C=N/n3cnnc3)o2)c1
-10 | 0.2 | COC(=O)C1=C(C)NC(=O)/C1=C\c1cccc2ccccc12
14 | 1.0 | O=C(CN1C2=NCCCN2c2ccccc21)c1ccco1
6 | -1.1 | COC(=O)C1=C(N)OC2=C(C(=O)CCC2)C1c1ccc(OCc2ccccc2F)cc1 (centres undefined)
nt | -0.7 | O=C(Nc1cccnc1Sc1ccc(Cl)cc1)C1CC1

Part of the list above, set out differently.
Fields: S aureus helic, MgrA DNA FP
> COc1ccccc1-c1coc2cc(OCc3ccc(C)cc3)ccc2c1=O
→ -3, -0.2
> COC(=O)C1C(=O)c2cc(OC)c(OC)cc2C1c1ccccc1 (centres undefined)
→ -10, 2.8

Another view of some results above:
molecule	S aureus helic	MgrA DNA FP
COc1cccc(OC)c1C(=O)N1CCN(C(=O)COc2ccc(Cl)cc2)CC1	5	1.1
Cc1nnc2c3ccccc3nc(Nc3ccc(N4CCOCC4)cc3)n12	23	nt
COc1cc(N=Cc2cccs2)c(OC)cc1Cl	nt	1.7
